Bioassay records as filed in PubChem.
VDR inh: inhibitors of human vitamin D receptor. AID 504847. P11473. Potency, µM, for the others: max response, negative = inhibition, usual class: inhibitors. VDR-SRC2-3 peptide fluorescence polarization, 2 h. hit rate 0.93% among 400,000; active = well fitted inhibition curve with a large enough effect; inconclusive = small, poorly fitted or top-dose-only effect, or another doubt; inactive = no such curve, though single readings can be large or run the other way; also: series mostly up to about 120 µM
Target sequence (P11473 whole entry, looked up): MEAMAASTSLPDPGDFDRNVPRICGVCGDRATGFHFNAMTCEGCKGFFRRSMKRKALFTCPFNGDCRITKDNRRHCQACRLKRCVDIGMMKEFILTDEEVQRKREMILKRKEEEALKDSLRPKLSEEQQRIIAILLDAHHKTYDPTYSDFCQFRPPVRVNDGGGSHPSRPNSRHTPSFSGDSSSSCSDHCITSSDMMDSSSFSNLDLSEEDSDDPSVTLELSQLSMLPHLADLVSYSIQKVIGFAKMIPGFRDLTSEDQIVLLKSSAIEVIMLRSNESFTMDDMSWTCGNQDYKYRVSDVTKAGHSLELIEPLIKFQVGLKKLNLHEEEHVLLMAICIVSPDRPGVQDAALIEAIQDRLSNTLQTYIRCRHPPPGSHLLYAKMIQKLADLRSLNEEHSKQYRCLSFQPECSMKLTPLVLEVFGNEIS
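VDR–SRC2-3 interaction, FP format. Cmpds 23 nl via pintool, brief spin, 2 h ambient incubation.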
The depositor's hits bear a star; u = inconclusive; & = joins results of further samples. % is scaled to controls: 0 for no effect and ±100 for the full control effect; potency is read from the fitted curve at half-maximal effect. This is a subset; rates above refer to the full screens.

SMILES | VDR inh
COc1cc(C(=O)N/N=C/c2ccc3c(c2)c2ccccc2n3C)ccc1O | -2%
CCOc1ccccc1CNC(=O)c1nn(C)c2c1CS(=O)(=O)c1ccccc1-2 | -4%&19%
CCN(CC)S(=O)(=O)c1ccc2nc(CCl)[nH]c2c1 | -22%
CC(C)(C)CC(=O)Nc1ccc(S(=O)(=O)NC2=NCCCCC2)cc1 | -18%
CN1C2C=C3C(C#N)=C(N)C(C#N)(C#N)C(c4ccc(Br)cc4)C3C1CC2 (stereo unspecified) | u
O=C(/C=C/c1ccccc1)Nc1cc(NC(=O)/C=C/c2ccccc2)cc(C(=O)O)c1 | -3%
COc1ccccc1N=Nc1c(O)[nH]c2ccc(Br)cc12 | -2%
O=C(c1ccc2c(c1)N(Cc1ccc(F)cc1)C(=O)c1ccccc1S2(=O)=O)N1CCCCC1 | -5%
CCCSc1ncnc2c1oc1ccccc12 | 0%
O=C(N/N=C/c1cccc(Oc2ccccc2)c1)c1ccncc1 | 13%

Other entries.
SMILES | VDR inh
CC(=O)c1cccc(NC(=O)C2CCCN(S(=O)(=O)c3cccc4cccnc34)C2)c1 (stereo unspecified) | -9%
COc1cccc(C(=O)N/N=C(\C)c2cccc(NC(=O)c3ccc(F)cc3)c2)c1OC | -3%
O=C(NCCCN1CCCCCC1)c1ccc(N2CCCC2=O)cc1 | -9%
CCN(CC)c1ccc(-n2nc3cc(C)c(NC(=O)c4ccccc4F)cc3n2)cc1 | -6%
CCOC(=O)CN(Cc1ccccc1)S(=O)(=O)c1ccc(NC(C)=O)cc1 | -10%
CC(=O)CCC(=O)OCC(=O)Nc1ccc(SC(F)F)cc1 | -10%
COc1ccc(CCN(C)C(=S)Nc2ccc(SC(F)F)cc2)cc1OC | 0%
Cc1cc(C)nc(N2CCC(C(=O)Nc3cccc(C(F)(F)F)c3)CC2)n1 | 3%
Cc1nc2nc(NC(=O)C(C)(C)C)[nH]n2c(=O)c1Cc1ccccc1 | 7%
CCOc1ncccc1C(=O)OCC(=O)N(CC(C)C)C1CCS(=O)(=O)C1 (stereo unspecified) | -13%

4 entries from above, with each value named:
> CC(=O)CCC(=O)OCC(=O)Nc1ccc(SC(F)F)cc1
  VDR inh: -10%
> Cc1nc2nc(NC(=O)C(C)(C)C)[nH]n2c(=O)c1Cc1ccccc1
  VDR inh: 7%
> CCOC(=O)CN(Cc1ccccc1)S(=O)(=O)c1ccc(NC(C)=O)cc1
  VDR inh: -10%
> COc1ccc(CCN(C)C(=S)Nc2ccc(SC(F)F)cc2)cc1OC
  VDR inh: 0%

The list goes on:
SMILES | VDR inh
CCN(CC)CCCN(Cc1cc2cc3c(cc2[nH]c1=O)OCO3)C(=S)Nc1ccccc1OC | -18%
Cc1nn(Cc2ccc(F)cc2)c2sc(C(=O)Nc3nccs3)cc12 | 0%
O=C(CCc1nnc2ccc(N3CCCCC3)nn12)NCc1ccco1 | 1%
COc1cccc(C(C(=O)NC2CCCC2)N(C(=O)c2ccco2)C2CC2)c1OC (stereo unspecified) | -14%
CCOC(=O)c1c(NC=O)sc2c1CCC2 | -14%
CCn1c(=O)n(CC(=O)Nc2cc(OC)ccc2OC)c(=O)c2ccccc21 | 4%
Clc1ccc(OCCOCCN2CCc3ccccc3C2)c(Cl)c1 | 10%
Clc1nc2c(-c3ccccc3)nnn2c2ccccc12 | -2%
Cc1cccc(C(=O)N(CC(=O)Nc2sc(C)c(C)c2C(N)=O)C2CCCC2)c1 | -27%
C/C(=C\C(=O)c1ncc(C(F)(F)F)cc1Cl)N(C)C | -14%

Further structures follow:
SMILES | VDR inh
CCCC(=O)NC(=S)Nc1cccc(Cl)c1N1CCCCC1 | 3%
NC(=O)C1=C[C@@H](c2ccc(C(F)(F)F)cc2)C[C@@H](OCc2ccc(CO)cc2)O1 | -14%
O=C(O)CSCCCC(=O)Nc1ccc(Br)cc1 | -12%
COC(=O)C[C@H]1c2cc(F)ccc2S(=O)(=O)N1c1ccc(N(C)C)cc1 | -1%
CCCCCCc1cc2cc(/C(N)=N/NC(=O)c3ccncc3)c(=O)oc2cc1O | -3%
CCn1cc(-c2cc(C(=O)O)c3ccccc3n2)c(C)n1 | -3%
O=C(CSc1nc(-c2ccccc2)[nH]c1-c1ccccc1)Nc1ccc2c(c1)OCCO2 | 16%
Cc1cc(C)cc(NC(=O)C2C3C=CC4(O3)C2C(=O)N(CCCN2CCCC2)C4C(=O)NC2CCCC(C)C2C)c1 (stereo unspecified) | 2%
CCN(CC)CCCN1C(=O)c2oc3ccccc3c(=O)c2C1c1cc(OC)ccc1OC (stereo unspecified) | -11%
Cc1ccc(C(=O)c2cc([N+](=O)[O-])ccc2N2CCCCC2)c(C)c1 | -4%

Next section:
SMILES | VDR inh
CCOC(=O)c1ccc(NC(=S)N(CCCN2CCCCCC2)Cc2ccco2)cc1 | -14%
Cc1ccc(NC(=O)CN(C)Cc2c(O)ccc3ccccc23)cc1 | 79µM*
CN(C)c1ccc(C(CNS(=O)(=O)c2ccc3ccccc3c2)c2c[nH]c3ccccc23)cc1 (stereo unspecified) | -2%
COc1ccc([C@H]2CC(=O)C=C(c3ccc(NC(C)=O)cc3)C2)cc1OC | 6%
CCOC(=O)Cc1cc(=O)[nH]c(/N=C(\N)Nc2ccc(OC)cc2)n1 | 17%
CCc1cccc2c(C=C(C#N)C#N)cn(CC(=O)N3CCCC3)c12 | 2%
CCS(=O)(=O)c1oc(-c2ccc(F)cc2)nc1S(=O)(=O)c1ccccc1 | 20µM*
CN(c1cccc(NS(=O)(=O)c2ccccc2)c1)S(C)(=O)=O | 2%
O=C(NC1CCCCC1)C1CCN(c2cnccn2)CC1 | -20%
COc1ccc(-c2cc(C)no2)cc1S(=O)(=O)Nc1ccccc1 | -12%

Following part
SMILES | VDR inh
CCCn1nnc(NC(=O)c2ccc(Br)o2)n1 | 5%
C=C(C)Cn1c(SCCN2CCOCC2)nc2c1c(=O)[nH]c(=O)n2C | 17%
O=C(N/C(=C/c1ccco1)C(=O)N1CCCC1)c1cccs1 | -6%
COc1ccc(CN2CC(C(=O)NCCC(C)C)CC2=O)cc1 (stereo unspecified) | -14%
Cc1ccc(CN2CCN(Cc3ccncc3)CC2CCO)o1 (stereo unspecified) | 12%
O=C(c1ccco1)N1CCN(Cc2cccc(F)c2)CC1 | 0%
CCOC(=O)Cc1c(C)nc(SC)[nH]c1=O | -2%
CCOC(=O)CSc1nnc(-c2ccc(OC)cc2)n1CC | 1%
O=C(O)c1cc(Nc2cc(Cl)c3nonc3c2[N+](=O)[O-])ccc1O | 3.5µM*
Nc1c(C(=O)c2ccc3c(c2)OCO3)sc(Nc2ccccc2F)c1S(=O)(=O)c1ccccc1 | -1%

Additional records follow:
SMILES	VDR inh
Cn1c(=O)n(-c2ccc(Cl)cc2)c(=O)c2c3c(sc21)COC(C)(C)C3	-10%
CSc1nc(O)c(C(c2ccc(F)cc2)c2c(O)nc(SC)[nH]c2=O)c(=O)[nH]1	u
COc1ccc(C(=O)O/N=C(\N)c2ccc(Cl)cc2)cc1	10%
C/C(=N\Nc1nc2ccccc2s1)c1cccs1	-8%
COc1ccc2c(CNCc3cccs3)c(C(=O)O)n(Cc3cccc(F)c3)c2c1	3%
CCc1cc2c(N3CCCCC3)ncnc2s1	15%
CC(C)(C)c1ccc(C(=O)OCCN2CCCCC2)cc1	-15%
CN1CCN(c2nc(-c3ccc(Cl)s3)cs2)CC1	-12%
Cc1ccc(S(=O)(=O)c2cnc(-c3ccccc3)nc2N2CCN(C)CC2)cc1	-2%
COc1ccc2cc(C(C)C(=O)Nc3cccc(S(=O)(=O)N(C)C)c3)ccc2c1 (stereo unspecified)	10%

Random excerpt: 4 compounds from above, in no set order.
SMILES	VDR inh
COc1ccc(C(=O)O/N=C(\N)c2ccc(Cl)cc2)cc1	10%
CCc1cc2c(N3CCCCC3)ncnc2s1	15%
CSc1nc(O)c(C(c2ccc(F)cc2)c2c(O)nc(SC)[nH]c2=O)c(=O)[nH]1	u
CN1CCN(c2nc(-c3ccc(Cl)s3)cs2)CC1	-12%

Next section.
SMILES	VDR inh
COc1cc(F)ccc1S(=O)(=O)N1CCN(C23CC4CC(CC(C4)C2)C3)CC1	-7%
Cc1ccc(-c2nnc3c(C(F)(F)F)nc4ccccc4n23)cc1	-7%
O=C(NCc1nnc(SCC(=O)N2CCCC2)o1)c1c(F)cccc1F	-3%
COc1ccccc1NC(=O)N1CCN(C(=O)c2ccco2)CC1	0%
C[C@@H]1C[C@H]2[C@@H]3C[C@H](F)C4=CC(=O)C=C[C@]4(C)[C@@]3(Cl)[C@@H](O)C[C@]2(C)[C@H]1C(=O)COC(=O)C(C)(C)C	-13%
Cc1ccc(C(=O)COC(=O)c2c(C)cc(=O)oc2C)cc1[N+](=O)[O-]	-6%
CC(=O)Nc1cccc(NC(=S)Nc2cccc(Cl)c2Cl)c1	-17%
Cc1nc(-c2ccccc2)sc1-c1ccc(SCC(=O)NCc2ccccc2)nn1	10%
CCCNC(=O)NC(=O)CSc1nncs1	2%
CCOc1ccc(NC(=O)CC2C(=O)N(CC)C(=S)N2NC(=O)c2ccncc2)cc1 (stereo unspecified)	-3%

(list continues)
SMILES	VDR inh
CS(=O)(=O)Oc1ccc(Br)c2cccnc12	-14%
COc1ccc(OCCC(=O)OCC(=O)NC(=O)NC(C)C)cc1	-14%
CCOC(=O)c1ccc(-c2c(-c3cc(OC)c(OC)c(OC)c3)noc2C)cc1F	4%
CCN(CC)c1cnn(C/C(=N\OC)c2ccc(Cl)cc2)c(=O)c1Br	-21%
CCOCCCn1c(SCC(=O)Nc2oc(C)c3c(C)n[nH]c(=O)c23)nnc1-c1ccncc1	-14%
CCCCNC(=O)/C(=C/c1ccco1)NC(=O)c1ccco1	-20%
COC(=O)c1cc2c(s1)-c1ccccc1OC2	-1%
O=C(Nc1cc(=O)[nH]c(=O)[nH]1)c1cccc(C(F)(F)F)c1	14%
COc1ccc(OC)c(-c2csc3nnc(SCC(=O)Nc4ccc(NC(C)=O)cc4)n23)c1	4%
Cc1cc(C)n(-c2ccc(C(=O)Nc3ccc4c(c3)OCCO4)cc2)n1	-7%

Further structures follow:
SMILES	VDR inh
O=C(NC1CCCCCC1)C1CCN(C(=O)c2ccc(Cl)cc2)CC1	-6%
CCn1cc(S(=O)(=O)c2ccc(C)cc2)c(=O)c2cc(F)c(N3CCN(C)CC3)cc21	12%
CC(C)[C@H](NC(=O)c1ccccc1)C(=O)OCC(=O)NCC1CCCO1 (stereo partly specified)	-15%
O=C(Oc1ccc(-c2ccccc2)cc1)C1C2CCCCC21 (stereo unspecified)	-12%
Cc1ccc(Cn2nc(C)c(NC(=O)C3(C)CC3(Br)Br)c2C)cc1 (stereo unspecified)	-3%
Cc1ccc(N2CC(C(=O)Nc3ccc4c(c3)OCO4)CC2=O)cc1C (stereo unspecified)	7%
COc1ccccc1C(=O)Nc1nnn(C)n1	-13%
c1cncc(-c2cncnc2NCc2cccs2)c1	u
O=C(/C=C/c1ccccc1)NC(=S)NNC(=O)c1cccnc1	2%
COc1ccc(-c2[nH]ncc2N=Nc2ccccc2)cc1	17%

Next section.
SMILES	VDR inh
O=C(O)c1ccc(-n2nc(C(F)(F)F)cc2-c2cccs2)cc1	7%
CC(=O)CSc1nnc2[nH]c(=O)cc(N)n12	2%
O=C(CCCOc1ccccc1)N1CCc2ccccc2C1	-17%
COc1cccc(/C=C2\SC(=O)N(CC(=O)NC3C=CS(=O)(=O)C3)C2=O)c1 (stereo unspecified)	-12%
CCOc1ccccc1OCCC(=O)NNC(=O)Cn1nc(C)cc1C	5%
c1ccc(Nc2nc(Nc3ccccc3)nc(-n3cccn3)n2)cc1	4%
COC(=O)c1ccc(NC(=O)CCc2nnc3ccc(NCc4ccco4)nn23)cc1	-4%
CCN(CC(=O)Nc1c(F)cccc1F)C(=O)c1ccc2ccccc2n1	-14%
COc1cc(C2NC(=O)C(C#N)=C(S)N2c2ccccc2)ccc1OC(C)C (stereo unspecified)	35µM*
OC1(c2cccc(C(F)(F)F)c2)CCN(c2ncnc3c2[nH]c2ccccc23)CC1	-6%

New compounds follow.
SMILES	VDR inh
CCOC(=O)C[C@H]1c2cc(F)ccc2S(=O)(=O)N1Cc1ccc(OC)cc1	-7%
COC(=O)C1=C(C)NC(c2c(O)ccc3ccccc23)C(C(=O)OC)=C1C (stereo unspecified)	2%
c1ccc(C[C@H]2CNCCN2CCC23CC4CC(CC(C4)C2)C3)cc1	-3%
COC(=O)c1cncn1Cc1ccccc1	13%
CCOC(=O)N1CCN(C(=O)c2ccc(N3CCCC3=O)cc2)CC1	5%
Cc1[nH]ncc1-c1ccccc1Cl	-3%
CCN1C(=NCc2ccco2)N[C@@H](c2cccc(F)c2)C(C(=O)OC)=C1C	13%
CCCC12CN3CCN(CC(C3)/C1=N\NC(=O)c1ccc(C(C)(C)C)cc1)C2	2%
COc1ccc([C@@H]2CC=C(C(=O)O)[C@H](c3ccccc3F)N2S(=O)(=O)c2ccccc2C)cc1	2%
Cc1ccc(N2CCN(C(=O)c3c(C)oc4ncnc(N5CCCCC5)c34)CC2)c(C)c1	8%

Continuation:
SMILES	VDR inh
Cc1ccn2c(=O)c(C(=O)NCc3ccccc3Cl)c(O)nc2c1	8%
C=CCn1c(SCC(=O)Nc2ccc(S(N)(=O)=O)cc2)nnc1-c1cnccn1	7%
COc1ccccc1N1CCN(C(=O)CSc2n[nH]c(-c3ccccc3)n2)CC1	2%
Cc1ccn2cc(-c3cccc(NC(=O)c4cccs4)c3)nc2c1	12%
N#Cc1ccc(CN2CC3(CCN(C(=O)c4cnccn4)CC3)C2)cc1	21%
C=CCn1c(-c2c[nH]c3ccccc23)n[nH]c1=S	5%
CCc1ccccc1OCCCCN1CCCC1	5%
CCOc1ccc2[nH]c(=O)c(CN(CCc3ccccc3)C(=O)N3CCCC3)cc2c1	-2%
OCCCNc1nc(-c2ccc(Cl)cc2)nnc1-c1ccccc1	8%
O=C1c2ccc(Oc3ccc([N+](=O)[O-])cc3)cc2C(=O)N1CCCO	-7%
O=C(Nc1ccc2c(c1)OCO2)Nc1ccc(F)cc1F	2%
COc1ccc(-c2nnc(SCC(=O)N(C)C3CCCCC3)o2)cc1OC	21%
